High-throughput results: PubChem BioAssay, several laboratories
ALR inh – blocks human ALR sulfhydryl oxidase activity; inhibition, % (no concentration beside the values); purified ALR, DTT oxidation, H2O2 HRP-luminol luminescence; 290,000 tested, 3.8% active;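 active = mean and each replicate at 75% or more; inconclusive = only one of the two met; inactive = neither met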;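 note: stock transfer was 7.5 nL into about 7.5 µL; 0% = neutral wells and 100% = wells with inactivated enzyme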
Target sequence (P55789 whole entry, looked up): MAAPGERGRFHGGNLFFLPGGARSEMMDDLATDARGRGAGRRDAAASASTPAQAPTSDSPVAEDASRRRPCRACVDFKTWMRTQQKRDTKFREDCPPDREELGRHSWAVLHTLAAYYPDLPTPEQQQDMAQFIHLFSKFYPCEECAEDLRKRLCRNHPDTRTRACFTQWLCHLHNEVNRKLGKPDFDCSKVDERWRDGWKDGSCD
Bfl-1 A1 inh – inhibitors of the anti-apoptotic protein A1, read as caspase activation. MEF A1-2A-BIM cells, Caspase-Glo 3/7 luminescence, 3 h; percent of clofoctol response, vehicle zero. caspase activation, % (concentration not given with the values). 330,000 tested, 0.066% active. AID 2462;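 active = over half of replicate activation scores above 10%, or exactly half above 10 with the replicate mean above 10; inconclusive = replicate mean below 10 yet half the replicates above 10; inactive = over half of replicates below 10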;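 note: wells of about 30 µL received 50 nL stock; many hits fall short of the cut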
Ecoli rRNA inh – inhibitors of bacterial rRNA selective over humanized ribosomes; AID 720706; 350,000 tested, 1.6% active; GFP signal change (wild-type ribosome), % (concentration not given with the values); E. coli WT GFP vs humanized-ribosome RFP mutants, fluorescence, 24 h; hits give low values; DMSO median 0, no signal -100;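 active = significant combined selectivity score with lowered wild-type GFP, culture density cut under 30%, mutant RFP and density less affected; inactive = any of these conditions unmet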; note: one replicate is shown; some compounds called inactive have numbers as strong as hits
LANA-H2A inh – blocks KSHV LANA binding to histone H2A/H2B; inhibition, % (no concentration beside the values); Q9QR71; 320,000 tested, 0.6% active; AID 2629; cell-free LANA-H2A/H2B peptide, fluorescence polarization; in the data active = inhibition mostly above about 10%, no sharp cut-off; inactive = mostly below about 6.7%;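 note: stock transfer was 7.5 nL into about 10 µL; 0% = median of vehicle wells and 100% = median of positive control wells; one replicate is shown; the record names a cut of 25% in any replicate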
Beta apoptosis – beta cell apoptosis inhibition; INS-1E cytokine-induced death, ATP luminescence, 48 h; percent of positive-control rescue, neutral wells zero; protection from apoptosis, % (concentration not given with the values); 300,000 tested, 0.8% active; AID 435005;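 active = all replicates at 75% or more, or half of them and the mean; inconclusive = half reach 75% but not the mean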;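 note: 0% = cytokine-treated negative control wells and 100% = positive control rescue; higher means more ATP so stronger rescue from cytokine killing; wells of about 40 µL received 100 nL stock; the first replicate is given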
Calb FLC – affects C. albicans growth with fluconazole | growth inhibition, % (test concentration not listed) | C. albicans CaCi-2 (fluconazole-resistant clinical isolate) + fluconazole, Alamar Blue growth, 48 h | 300,000 tested, 0.57% active;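 active = most replicates above 75%; inconclusive = exactly half above 75%; inactive = most below 75%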;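 note: all wells also contain fluconazole at 8 µg/ml as a sub-toxic cotreatment; 0% = median of DMSO wells and 100% = median of geldanamycin control wells; wells of about 8 µL received 7.5 nL stock; the first replicate is given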
T cruzi inh – T. cruzi replication inhibition; 300,000 tested, 1.4% active; AID 1885; inhibition, % (no concentration beside the values); T. cruzi beta-gal in NIH3T3, luminescence, 90 h;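 active = mean inhibition across valid replicates above about 55%, limit read from the data; inconclusive = mean below that limit but half or more replicates reach it; inactive = mean below it, under half of replicates reach it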;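 note: signal also drops with host cell toxicity which is not excluded here; 0% = plate median of DMSO wells and 100% = zero luminescence signal; higher percent means less beta-gal luminescence so fewer parasites; stock transfer was 50 nL into about 50 µL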
Beta2AR agonist – agonists of human beta-2 adrenergic receptor inducing internalization. P07550. response, % (concentration not given with the values). Am2.2-beta2AR cells, FAP receptor internalization, flow cytometry; reference of the scale not given here. AID 504454. 340,000 tested, 0.43% active;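 active = response above a set limit, near 3 SD of response in nonfluorescent compounds, cut at about 42% in these data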;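 note: stock transfer was 100 nL into about 11 µL; a reference agonist was the positive control; negative values mostly stem from fluorescent compounds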
Target sequence (P07550 whole entry, looked up): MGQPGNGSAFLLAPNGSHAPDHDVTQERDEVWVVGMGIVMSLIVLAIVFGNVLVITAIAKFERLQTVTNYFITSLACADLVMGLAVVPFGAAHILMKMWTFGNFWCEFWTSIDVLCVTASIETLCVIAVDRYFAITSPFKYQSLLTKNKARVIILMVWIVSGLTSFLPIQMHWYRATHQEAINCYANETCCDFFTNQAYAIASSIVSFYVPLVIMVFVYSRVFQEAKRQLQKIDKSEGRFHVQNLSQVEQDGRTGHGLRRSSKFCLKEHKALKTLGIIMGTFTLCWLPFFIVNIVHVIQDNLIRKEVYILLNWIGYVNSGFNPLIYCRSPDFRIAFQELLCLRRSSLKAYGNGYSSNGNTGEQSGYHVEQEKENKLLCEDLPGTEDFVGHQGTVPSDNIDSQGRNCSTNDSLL
Ecoli rRNA inh OD600 – further read-out of Ecoli rRNA inh, marked with its call; OD600 change, %; measured here: OD600 growth;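 optical density of the mix in the first replicate; 0 = DMSO median and -100 = no signal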
Ecoli rRNA inh RFP – further read-out of Ecoli rRNA inh, marked with its call; RFP signal change, %; measured here: RFP humanized mutant strains;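 first replicate; 0 = DMSO median and -100 = no signal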
* marks the source's active call; other numbers are inactive results; ? = inconclusive; nt = not tested or not shown; + = active, no number; & = joins results of further samples. Not all compounds are listed; the hit share may differ from the screen's.

SMILES	ALR inh	Bfl-1 A1 inh	Ecoli rRNA inh	Ecoli rRNA inh OD600	Ecoli rRNA inh RFP	LANA-H2A inh	Beta apoptosis	Calb FLC	T cruzi inh	Beta2AR agonist
CC(C)N1C(=O)CCC1C(=O)N1CCC2(CC1)OCCO2 (configuration not stated)	-1	-1.1	nt	nt	nt	-5.2	-5	-15	6	1
COc1ccc(OC)c(CN2CCCC(C(=O)c3sccc3C)C2)c1 (configuration not stated)	-4	1.0	-1	-10	14	-3.5	6	-16	44	-6
COc1ccc2c(c1)c(C(=O)O)c(C)n2C(C)C	6	-0.1	nt	nt	nt	-0.7	-3	?	-10	-3
N[C@@H]1CCCC[C@H]1N.O=C(O)C(=O)O.[Pt]	47	1.0	nt	nt	nt	1.6	87*	-12	-16	nt
CC(=O)c1ccc(NC(=O)N2C[C@H]3C[C@@H](C2)c2cccc(=O)n2C3)cc1	-7	0.8	7	8	-3.4	-5.7	-1	-3	-2	1
O=c1c2ccccc2nc(-c2ccc([N+](=O)[O-])cc2)n1-c1ccccc1	-8	0.4	13	5	4.1	-5.4	0	-4	31	9
COCCn1c(O)c(/C=N/NC(=O)CSC(=S)N2CCCC2)c(=O)[nH]c1=S	17	0.1	20	18	0.5	-1.4	-2	nt	nt	-2
COc1ccc(C2CC(c3c(O)n(CCc4ccccc4)c(=O)[nH]c3=O)=NN2)cc1OC (configuration not stated)	11	-0.7	-10	-8	-2.5	-1.9	-2	-12	0	1
C=CCn1c(O)c(C=Nc2c(C)n(C)n(-c3ccccc3)c2=O)c(=O)[nH]c1=O	-12	-1.1	-3	-5	-8.2	4.3	nt	-2	-15	-5
COc1ccccc1CNC(=O)CCC(=O)N1C[C@H]2C[C@@H](C1)c1cccc(=O)n1C2	-11	-0.4	6	15	2.0	2.0	nt	1	-13	3
CCN(c1ccc(C(O)(C(=O)OC)C(F)(F)F)cc1)S(=O)(=O)c1ccccc1 (configuration not stated)	-2	0.0	nt	nt	nt	3.2	-3	-11	-7	3
NS(=O)(=O)c1ccc(-c2ccc(C=C3C(=O)NC(=S)NC3=O)o2)cc1	-21	1.6	22	19	-10	2.3	-3	-4	5	nt
C[C@]12CCC3C(CC[C@H]4C[C@@H](O)CC[C@]34C)C1CC[C@@H]2O (some centres not stated)	-2	1.7	5	13	5.2	1.4	1	nt	nt	-2
CCOP(=O)(OCC)c1ccc(O)cc1	3	0.3	15	14	1.3	-0.8	4	-15	-1	4
O=C1NC(=O)C2(C(=O)N1)C(c1ccc(F)cc1)NC(=S)NC2c1ccc(F)cc1 (configuration not stated)	nt	1.0	nt	nt	nt	-3.4	nt	3	2	2
CCN1CCN(c2ccc([N+](=O)[O-])cc2C#N)CC1	-9	0.3	23	28	0.4	1.5	6	32	2	-3
COc1ccc(P2(=O)Nc3ccccc3N2)cc1	-28	-0.4	-1	6	1.6	-1.2	8	-2	11	2
COC(=O)C1=C(c2ccc(Cl)c(C(F)(F)F)c2)C[C@@H]2CC[C@H]1N2C(=O)NCC1CC1	4	0.0	-51	-74	-23	1.0	-7	nt	nt	-14
C[C@H]1C(=O)O[C@@H]2CCN3CC=C(COC(=O)[C@](C)(O)[C@]1(C)O)[C@H]23	6	0.8	nt	nt	nt	-2.7	3	nt	nt	-5
C=CCn1c(O)c(/C(C)=N/N2CCN(C)CC2)c(=O)[nH]c1=O	-4	-1.1	5	4	-2.3	0.9	0	-3	-21	1
O=C(N/N=C/c1c(O)n(CCc2ccccc2)c(=O)[nH]c1=O)c1ccncc1	nt	1.0	nt	nt	nt	-3.6	0	-1	2	1
OCC1CO1 (configuration not stated)	7	0.2	2	0	-0.6	-107	4	nt	nt	-2
S=C=Nc1ccccn1	5	0.8	15	17	5.4	1.6	1	-3	-17	8
O=P(/C(=N/O)N1CCOCC1)(N1CCOCC1)N1CCOCC1	1	0.3	nt	nt	nt	-7.2	-1	2	-15	1
COC1=CC(=O)OC(/C=C/c2ccccc2)C1 (configuration not stated)	-3	-1.0	nt	nt	nt	5.0&12	nt	-20	3	3
CC(C)N1CCC2(CC1)NC(CO)(CO)CO2	-6	0.7	nt	nt	nt	1.0	-2	-9	-10	0
CN(C)CCN=Cc1c(O)n(C2CCCCCC2)c(=O)[nH]c1=O	2	0.2	nt	nt	nt	9.0	-2	-15	-9	0
COc1cc2c(cc1O)C[C@H]1NCCc3cc4c(c-2c31)OCO4	nt	0.2	-21	-12	31	-6.6	29	-36	21	4
CN(C)C(=O)Oc1ccc2c(c1)O/C(=C\c1cccc([N+](=O)[O-])c1)C2=O	6	0.3	6	5	-5.5	-3.9	-6	-18	-4	-10
O=C(c1ccc2c(c1)OCO2)C1CCCN(Cc2ccc(F)c(F)c2)C1 (configuration not stated)	0	1.6	-3	-11	1.4	-1.8	-1	-32	39	-8
C/C(=N\N1CCCCCC1)c1c(O)n(-c2ccccc2C)c(=O)[nH]c1=O	nt	0.5	-5	0	-0.5	-4.2	4	4	6	-4
CCC(=NCc1ccco1)c1c(O)n(-c2ccccc2)c(=O)[nH]c1=O	-4	-0.4	nt	nt	nt	2.0	-2	-22	-5	3
Cc1ccccc1-n1c(O)c(C=Nc2ccc3c(c2)OCO3)c(=O)[nH]c1=O	-16	0.6	nt	nt	nt	-0.9	8	4	-15	0
COC(=O)c1nc(-c2ccc3c(n2)C(=O)C(N)=C(OC)C3=O)c(N)c(-c2ccc(OC)c(OC)c2O)c1C	-13	0.5	16	15	7.3	3.2	111*	19	50	27
CCC(=Nc1ccccc1N)c1c(O)[nH]c(=O)[nH]c1=O	0	-1.2	18	12	-3.2	-0.9	-3	6	1	-14
COc1ccc(-n2c(O)c(/C(C)=N/Nc3ccccc3)c(=O)[nH]c2=O)cc1	-13	0.4	-13	3	12	0.4	-11	-4	27	-10
Cc1c(C)c2ccc(OCC(=O)N3CCC(C(=O)O)(c4ccccc4)CC3)c(C)c2oc1=O	-1	-0.4	-20	-19	-15	1.1	nt	-3	-3	-8
COc1cccc(Oc2coc3cc(OC(=O)N(C)C)ccc3c2=O)c1	3	0.1	0	-8	-6.8	-0.1	0	0	-1	-5
O=C(O)C1C2CCC(O2)C1C(=O)Nc1ccc(F)c(F)c1 (configuration not stated)	5	0.6	7	2	-0.6	-3.1	-2	-6	-6	-3
CC(C)COc1ccc(Cc2c(O)[nH]c(=S)[nH]c2=O)cc1	12	0.0	10	11	2.7	-2.3	-10	6	-11	-8
CCN(CC)C(=O)c1ccc(NC(=O)COC(=O)c2ccc(Cl)s2)cc1	nt	-1.9	-1	0	-2.0	3.1	0	nt	nt	-6
CCCNC(=O)N1[C@H]2CC[C@@H]1C(C(=O)OC)=C(c1cccc(Cl)c1)C2	-5	0.3	-4	-1	-5.4	1.8	5	nt	nt	-3
CCCC(C)C1C(C#N)=C(N)Oc2c1c(=O)oc1ccccc21 (configuration not stated)	-1	-0.3	nt	nt	nt	0.7	-2	-2	-16	-8
COc1cccc(CN2CCCC(C(=O)c3ccccc3SC)C2)c1O (configuration not stated)	nt	-0.9	0	-6	-3.8	-2.3	-5	13	0	7
CCc1ccc(-n2c(O)c(/C=N/NC(=O)c3ccncc3)c(=O)[nH]c2=O)cc1	3	0.2	nt	nt	nt	-1.3	-4	4	-17	-3
CCC(=NCc1ccco1)c1c(O)n(-c2ccc(C)cc2)c(=O)[nH]c1=O	1	0.5	nt	nt	nt	-0.1	0	-32	1	8
CC(=O)CCC(C)=O	21	0.5	2	1	-1.0	+	0	nt	nt	-5
Clc1ccc(C(Cl)(Cl)Cl)c(Cl)c1	-50	-0.3	5	2	-0.1	-36	0	nt	nt	-5
COc1cc(OC)c([C@H]2C=C(C)[C@H]3C[C@@H]2C3(C)C)c(OC)c1	-9	-1.3	10	12	-1.9	-3.1	5	0	15	9
COC(=O)C1=C(c2ccc(OCc3ccccc3)cc2)C[C@@H]2CC[C@H]1N2C(=O)NCc1ccc(N(C)C)cc1	-4	-0.6	3	7	12	-3.1	5	nt	nt	-4
CC(=O)c1cn(Cc2ccc(C#N)cc2)c2ccccc12	1	0.5	10	12	-2.9	-2.7	4	-21	-11	6
COC(=O)C1=C(c2ccc(OC)c(OC)c2)C[C@@H]2CC[C@H]1N2C(=O)N1CCC(C)CC1	6	1.3	-10	-7	7.1	0.3	-1	nt	nt	1
CCOc1ccccc1N1C(=O)NC(=O)/C(=C/c2ccc3c4c(cccc24)CC3)C1=O	3	1.0	nt	nt	nt	4.8	-3	7	0	12
Cc1cccc(-n2c(C)nc3ccccc3c2=O)c1C	6	0.4	5	10	-0.7	2.0	0	-23	-5	3
C[C@H]1CCC/C=C/[C@@H]2C[C@H](O)C[C@H]2[C@H](O)/C=C/C(=O)O1	2	2.4&1.5	nt	nt	nt	-12&-4.4	117*	nt	nt	34&35
COC(=O)C1=C(c2cccc(C#N)c2)C[C@@H]2CC[C@H]1N2C(=O)NCCc1ccccc1	1	0.1	4	9	-1.2	0.3	-1	nt	nt	-1
COc1ccn(C)c(=O)c1C#N	-15	0.3	5	5	-1.5	-1.9	-10	-6	-17	0
CN1CCN(C(=S)SCC(=O)Nc2ccc(Cl)cc2C(=O)c2ccccc2)CC1	0	1.7	nt	nt	nt	-3.0	6	34	12	-15
Cc1cc(C=C2C(=O)NC(=O)NC2=O)c(C)n1-c1cccnc1	12	0.1	22	15	-7.7	-0.7	-1	0	0	6
Cc1cccc(-n2c(O)c(C=Nc3ccc(Br)cn3)c(=O)[nH]c2=O)c1	-2	1.0	33	11	18	-2.8	nt	26	-13	-13
Following part:
SMILES	ALR inh	Bfl-1 A1 inh	Ecoli rRNA inh	Ecoli rRNA inh OD600	Ecoli rRNA inh RFP	LANA-H2A inh	Beta apoptosis	Calb FLC	T cruzi inh	Beta2AR agonist
CCOC(=O)COc1ccc2c(c1)c(C(C)=O)c(C)n2Cc1ccccc1	0	0.6	-15	-16	9.5	-2.0	-3	-23	-1	8
C=CCn1c(O)c(C=NCCCn2ccnc2)c(=O)[nH]c1=O	-2	0.8	6	-5	1.2	0.6	-8	-10	14	-6
CN(C)S(=O)(=O)c1cc(NC(=O)C[N+]23CCN(CC2)CC3)ccc1Cl	2	-0.1	nt	nt	nt	-3.2	nt	-6	-23	0
S=P(NC1CCCCC1)(N1CC1)N1CC1	-8	0.4	6	18	-3.6	1.7	12	2	-4	-5
COc1ccc(OC)c(CNCCc2ccc(OC)c(OC)c2)c1	-6	1.2	19	14	-1.6	-4.3	2	-3	9	0
Cc1cccc(-n2c(O)c(/C=N/N3CCOCC3)c(=O)[nH]c2=S)c1	28	0.1	nt	nt	nt	2.4	4	12	8	-9
Cc1cccc([N+](=O)[O-])c1	-3	0.2	1	5	0.4	-30	4	nt	nt	-1
O=C(Cc1ccccc1)N1CCN(Cc2ccc(F)cc2)CC1	0	0.1	-1	-12	-3.4	-0.6	nt	-1	10	-2
CCNC(=S)N(C)CCc1cc2c(c(OC)c1C=C1C(=O)N(C)C(=O)N(C)C1=O)OCO2	19	-0.6	nt	nt	nt	0.5	-3	-27	-6	-12
CCP(=S)(CC)c1ccc(N(C)C)cc1	61	0.3	2	4	3.0	-7.8	3	-15	-8	-3
